D2 potentiator: Beta-Arrestin HTS for Positive Allosteric Modulators of the Human D2 Dopamine Receptor: Potentiators. potentiation, % (no concentration beside the values). 360,000 compounds, 0.23% hits. DiscoveRx D2 beta-arrestin cells, luminescence, 90 min; 100% = 57 uM dopamine signal. D(2) dopamine receptor (Homo sapiens), P14416. AID 624464, 2012; active = potentiation of 50% or more; inconclusive = 30% to 50%; inactive = 30% or less;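 also: compound concentration not given in the record; tested on top of an EC20 dose of dopamine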
Target sequence (P14416 whole entry, looked up): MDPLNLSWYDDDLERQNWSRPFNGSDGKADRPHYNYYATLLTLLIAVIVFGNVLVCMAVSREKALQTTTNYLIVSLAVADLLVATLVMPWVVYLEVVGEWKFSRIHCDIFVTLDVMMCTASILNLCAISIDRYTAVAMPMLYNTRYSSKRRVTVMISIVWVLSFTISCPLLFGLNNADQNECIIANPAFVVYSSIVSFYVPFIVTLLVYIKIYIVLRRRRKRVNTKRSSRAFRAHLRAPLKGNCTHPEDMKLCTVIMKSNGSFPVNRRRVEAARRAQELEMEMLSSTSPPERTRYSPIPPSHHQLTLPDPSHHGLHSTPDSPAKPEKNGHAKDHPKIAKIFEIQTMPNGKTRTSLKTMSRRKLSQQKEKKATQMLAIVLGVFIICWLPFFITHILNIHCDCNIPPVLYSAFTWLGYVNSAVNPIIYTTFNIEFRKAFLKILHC
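D2 cells co-treated with compound plus 50 nM dopamine (EC20) for 90 min at 37 deg C to detect potentiation. Beta-arrestin recruitment was read as enzyme-fragment luminescence after 1 h at ambient temperature. Full response was set by 57 uM dopamine.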
TRPML1 ag: qHTS for Agonists of the Human Mucolipin Transient Receptor Potential 1 (TRPML1); Mucolipin-1 (Homo sapiens), Q9GZU1; TRPML1-expressing cells, Ca2+ dye fluorescence, FDSS; host cell line not named in the record; reference of the full effect not given here; activation, % (no concentration beside the values); 410,000 compounds, 0.12% hits; AID 624414, 2012; in the data active = activation above about 50%; inconclusive = about 30% to 50%; inactive = below about 30%; also: 0% is about no effect; the text of the record puts the active cut at 80%
Target sequence (Q9GZU1 whole entry, looked up): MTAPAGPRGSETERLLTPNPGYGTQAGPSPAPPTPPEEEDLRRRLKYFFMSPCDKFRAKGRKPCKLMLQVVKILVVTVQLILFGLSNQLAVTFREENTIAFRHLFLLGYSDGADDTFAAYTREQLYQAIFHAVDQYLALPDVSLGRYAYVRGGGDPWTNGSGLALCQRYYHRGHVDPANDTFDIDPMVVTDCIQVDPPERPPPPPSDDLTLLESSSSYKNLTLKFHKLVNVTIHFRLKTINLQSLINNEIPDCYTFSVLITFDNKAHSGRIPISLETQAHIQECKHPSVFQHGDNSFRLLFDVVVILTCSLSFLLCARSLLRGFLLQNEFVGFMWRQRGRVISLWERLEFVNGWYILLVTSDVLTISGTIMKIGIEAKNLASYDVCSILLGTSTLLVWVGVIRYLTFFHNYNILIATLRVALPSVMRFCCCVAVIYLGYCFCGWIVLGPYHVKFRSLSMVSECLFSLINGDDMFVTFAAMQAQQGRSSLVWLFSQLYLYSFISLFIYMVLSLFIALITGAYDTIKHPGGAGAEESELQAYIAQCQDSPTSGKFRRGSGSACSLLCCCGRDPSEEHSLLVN
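TRPML1-DL cells, Tet-induced overnight (~16 h, 37 degrees C), loaded 45-90 min at room temperature with Ca8 no-wash calcium dye plus quencher. FDSS fluorescence: 10 s baseline, compound pin-transfer, 110 s agonist read, then EC80 54-4 (4uM final) and 110 s antagonist read.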
Six1-Eya2 inh: qHTS Assay for Inhibitors of the Six1/Eya2 Interaction; AID 651725, 2012; activity change, % (no concentration beside the values); AlphaScreen GST-Six1/His-Eya2 binding, biochemical; stronger effect = lower value; control for the full effect not named in the record; 360,000 compounds, 0.56% hits; Homeobox protein SIX1 (Homo sapiens) + Protein phosphatase EYA2 (Homo sapiens), …; in the data active = activity change below about -65%; inconclusive = about -30% to -65%; inactive = above about -30%; also: % is scaled to controls: 0 for no effect and ±100 for the full control effect
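AlphaScreen luminescence read after one hour at 37 °C in darkness. Pin-transferred compounds met GST-Six1 and His-Eya2 protein (5X stock 250 nM/500 nM) plus glutathione donor and Ni-chelate acceptor beads (5X, 50 ug/mL).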
TRPML1 blocker: qHTS for Inhibitors of the Human Mucolipin Transient Receptor Potential 1 (TRPML1); TRPML1-inducible cells, Ca2+ dye fluorescence, FDSS; stronger effect = lower value; inhibition of EC80 agonist-evoked calcium signal; Mucolipin-1 (Homo sapiens), Q9GZU1; activity change, negative = inhibition, % (no concentration beside the values); 390,000 compounds, 0.02% hits; in the data active means activity change below about -50%; inconclusive means about -30% to -50%; inactive means above about -30%;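 also: stimulus is agonist 54-4 at its EC80 concentration; % is scaled to controls: 0 for no effect and ±100 for the full control effect; compound concentration not given in the record; the text of the record puts the active cut at -80%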
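Tet-induced TRPML1-DL cells loaded with Ca8 no-wash calcium dye were read kinetically on FDSS. Compound addition was followed by EC80 agonist 54-4 (4 uM final); inhibition was read over 110 s.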
TRPV1 potentiator: HTS Assay for Compounds that Act as Potentiators of the Vanilloid Receptor 1 | 320,000 compounds, 0.02% hits | TRPV1-expressing cells, Fluo-8 calcium influx, capsaicin EC20 potentiation; host cell line not named in the record; control for the full effect not named in the record | AID 540277, 2011 | potentiation, % at 8.33 µM | Transient receptor potential cation channel subfamily V member 1 (Homo sapiens), Q8NER1; active means potentiation above 80%; inconclusive means 30% to 80%; inactive means below 30%; also: 0% is about no effect
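Cells expressing TRPV1 were dye-loaded with Fluo-8 and read kinetically: 10 s baseline, 3 min after compound (agonist portion), then 2 min after EC20 capsaicin (allosteric enhancer portion). Calcium-bound dye fluorescence at 480/520 nm.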
CtBP-E1A inh: qHTS Assay for Inhibitors of the CtBP/E1A Interaction. CtBP / adenovirus E1A interaction (AlphaScreen). AlphaScreen GST-E1A/His-CtBP binding, 1536-well; stronger effect = lower value; control for the full effect not named in the record. activity change, % (no concentration beside the values). 340,000 compounds, 0.49% hits; in the data active means activity change below about -65%; inconclusive means about -30% to -65%; inactive means above about -30%; also: % is scaled to controls: 0 for no effect and ±100 for the full control effect
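AlphaScreen with 125 nM GST-E1A and 125 nM His-CtBP (5X stocks) in Tris pH 8.0, 300 mM NaCl, BSA, Tween 20, TCEP. Compounds preincubated 2 h at 37 deg C, then glutathione donor/nickel acceptor beads added for 1 h at 37 deg C in dark.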
* hit, by the source's call; ? = inconclusive; . = not tested or not shown.

Start of the listing, in advance (6 entries):
SMILES | D2 potentiator | TRPML1 ag | Six1-Eya2 inh | TRPML1 blocker | TRPV1 potentiator | CtBP-E1A inh
N#Cc1cc([N+](=O)[O-])ccc1N1CCN(c2ccccc2O)CC1 | -11 | 0.0 | -27 | 9 | 1 | 7
Cc1c(NC(=O)/C(=C/c2cccs2)c2cccs2)c(=O)n(-c2ccccc2)n1C | -23 | 1.1 | -7 | -5 | 5 | -5
CCCn1cc(S(=O)(=O)c2ccc(C)cc2)c(=O)c2cc(OC)ccc21 | -4 | -0.9 | 8 | -10 | -19 | -17
O=[N+]([O-])c1ccc(Cl)cc1NCc1cccnc1 | -8 | 0.3 | -10 | -2 | . | -2
O=C(CSc1nnc(-c2ccccc2F)n1C1CCCCC1)Nc1cc(C(=O)O)ccc1Cl | -2 | -0.8 | 1 | 9 | . | 6
CCOc1ccc(N/C=C\C(=O)c2ccc3c(c2)OCO3)cc1 | -14 | -0.5 | -9 | 43 | . | -26

Results (from the top)
SMILES | D2 potentiator | TRPML1 ag | Six1-Eya2 inh | TRPML1 blocker | TRPV1 potentiator | CtBP-E1A inh
N#Cc1cc([N+](=O)[O-])ccc1N1CCN(c2ccccc2O)CC1 | -11 | 0.0 | -27 | 9 | 1 | 7
Cc1c(NC(=O)/C(=C/c2cccs2)c2cccs2)c(=O)n(-c2ccccc2)n1C | -23 | 1.1 | -7 | -5 | 5 | -5
CCCn1cc(S(=O)(=O)c2ccc(C)cc2)c(=O)c2cc(OC)ccc21 | -4 | -0.9 | 8 | -10 | -19 | -17
O=[N+]([O-])c1ccc(Cl)cc1NCc1cccnc1 | -8 | 0.3 | -10 | -2 | . | -2
O=C(CSc1nnc(-c2ccccc2F)n1C1CCCCC1)Nc1cc(C(=O)O)ccc1Cl | -2 | -0.8 | 1 | 9 | . | 6
CCOc1ccc(N/C=C\C(=O)c2ccc3c(c2)OCO3)cc1 | -14 | -0.5 | -9 | 43 | . | -26
c1ccc(NC2=Nc3cccc4cccc2c34)cc1 | -55 | 1.3 | -17 | -6 | -8 | -12
COc1ccc(NC(=O)CCCCCN2C(=O)[C@@H]3Cc4ccccc4CN3C2=O)cc1Cl | -8 | -0.4 | 6 | 0 | 6 | 6
Cc1c(NC(=O)C(=O)/C=C(\O)c2ccc(Br)cc2)c(=O)n(-c2ccccc2)n1C | -3 | 1.0 | -1 | 1 | 4 | 1
c1ccc2sc(N3CCOCC3)nc2c1 | 4 | 2.9 | 22 | -2 | -11 | 48
CC(=O)c1ccc(NC(=O)C(C)OC(=O)C(C)Oc2cccc(C)c2)cc1 (configuration not stated) | -13 | 1.9 | 5 | 3 | -28 | 6
CCC(CC)C(=O)NCCc1ccc(OC)c(OC)c1 | -2 | 2.4 | 1 | -12 | 3 | -1
Cc1cc(C)c2oc(=O)cc(CN3CCN(Cc4ccccc4)CC3)c2c1 | -8 | -0.4 | 1 | 25 | -3 | .
O=C(COc1ccccc1)NC1CCSC1=O (configuration not stated) | 1 | -0.2 | 5 | 1 | -8 | -1
C[N+]1(C)CC2([N+](=O)[O-])CC=C(Oc3ccccc3)C([N+](=O)[O-])(C2)C1 (configuration not stated) | -9 | -0.4 | 4 | 27 | -5 | 5
COc1cc2c(cc1OC)CN(Cc1cc(=O)n3c(-c4ccccc4)csc3n1)CC2 | -15 | 0.6 | -4 | -4 | -7 | 0
CN(C)CCOCCOc1ccc(Cl)c2ccccc12 | -11 | 0.0 | 0 | 7 | 28 | -9
O=C(OCCCc1cc2ccccc2c(=O)o1)c1ccco1 | -15 | -0.2 | 1 | -24 | 7 | 0
CC(=O)N1CCOc2ccc(S(=O)(=O)NCCc3ccc(Cl)cc3)cc21 | -10 | 0.3 | 4 | 6 | 11 | 1
O=C(O)COc1ccc(S(=O)(=O)NCCc2ccccc2)cc1 | -4 | -0.1 | 3 | 1 | -10 | 3
COc1ccc2c3c([nH]c2c1)C(C)N(CCC(=O)NN)CC3 (configuration not stated) | -11 | -0.3 | -13 | 8 | -3 | -14
COc1ccc([N+](=O)[O-])cc1NC(=O)C(C)Sc1ccc(C)cc1 (configuration not stated) | -18 | 2.4 | -5 | 50 | 0 | 0
NS(=O)(=O)c1ccc(F)c(C(=O)O)c1 | -1 | 0.3 | 8 | -5 | 15 | 12
Cc1ccc(S(=O)(=O)N2CCC(C(=O)N3CCC(C(=O)NCC4CCCO4)CC3)CC2)cc1 (configuration not stated) | -18 | 0.3 | 3 | 19 | 0 | -2
COc1ccc(NC(=S)Nc2ccc3nc(C)c(C)nc3c2)cc1 | -5 | -0.9 | -2 | 5 | -3 | -5
O=C(C[C@H]1C[C@@H]2c3cc(NC(=O)c4ccc5c(c4)OCO5)ccc3O[C@@H]2[C@H](CO)O1)NCc1cc(F)ccc1F | -4 | -0.4 | -70* | 24 | . | -67*
Cc1ccc(S(=O)(=O)N2CCN(C(=O)Cn3nc(C)c([N+](=O)[O-])c3C)CC2)c(C)c1 | 5 | 1.5 | -1 | -14 | 0 | -2
O=C(COC(=O)c1ccc(-c2ccccc2)cc1)Nc1ccccc1-c1ccccc1 | -15 | 4.9 | 21 | -14 | 12 | 10
CCN(CC)S(=O)(=O)c1ccc(N2CCOCC2)c(NC(=S)NC(=O)c2ccco2)c1 | -4 | 1.5 | 3 | -20 | -6 | 14
CC(C)C(=O)Nc1cccc(C(=O)Nc2ccc3c(c2)OCO3)c1 | -25 | 1.7 | -3 | -25 | 1 | -3
O=C1/C(=C/c2cccs2)SC(=S)N1NS(=O)(=O)c1ccccc1 | -2 | . | -1 | . | 14 | 0
O=C1CC(c2ccccc2)SC(N(c2ccccc2)c2ccccc2)=N1 (configuration not stated) | -5 | 4.6 | -1 | -10 | 12 | -16
Oc1ccc2ccc3[nH]cnc3c2c1 | -22 | 0.3 | -2 | -9 | -13 | .
COc1ccc(C(C[N+](=O)[O-])c2c(C)cc3ccccn23)cc1 (configuration not stated) | -11 | 0.1 | -24 | -15 | 1 | ?
CC1CN(CCCCN2C(=O)c3ccccc3C2=O)CC(C)O1 (configuration not stated) | -11 | -0.6 | 1 | -6 | 4 | 7
Cc1oc(-c2cccs2)cc1C(=O)N1CCC(C)(C(=O)NS(=O)(=O)C2CC2)C1 (configuration not stated) | -6 | -0.5 | 5 | . | . | -20
O=C(c1cccnc1)N1N=C2CCCCCC2C1(O)C(F)(F)F (configuration not stated) | 0 | -0.3 | -4 | 58 | 14 | 2
COC(=O)c1ccc(/C=N/NC(=O)CC(=O)NCc2cccnc2)cc1 | -2 | 1.0 | -9 | 2 | 1 | -2
Cc1cnc(C(=O)OCC(=O)c2ccc(-c3ccccc3)cc2)cn1 | -13 | 0.7 | -3 | -13 | -15 | -12
CCOc1ccc(NC2OCC(O)C(O)C2O)c([N+](=O)[O-])c1 (configuration not stated) | -8 | 0.1 | 3 | 18 | -2 | -4
Cc1cc(NC(=O)COC(=O)[C@H](Cc2c[nH]c3ccccc23)NC(=O)c2ccc(F)cc2)no1 | -18 | 0.6 | -14 | -1 | 5 | -3
Cn1c(N)c(C(=O)CSc2nnc(-c3cccs3)n2C2CC2)c(=O)[nH]c1=O | 15 | -0.5 | -9 | -5 | ? | -4
CC(=O)OCC1=C(C(=O)O)N2C(=O)[C@@H](NC(=O)Cc3cccs3)[C@H]2SC1 | -21 | . | 0 | . | -8 | 1
CC(C)[C@H](NC(=O)NCc1ccco1)C(=O)O | -5 | 0.7 | 1 | -15 | 4 | 6
O=C1NC(=O)C(Cc2c[nH]c3ccccc23)N1 (configuration not stated) | -6 | 0.7 | 10 | -25 | -2 | 7
OC(c1cccnc1)c1nc(-c2cccc(F)c2)cs1 (configuration not stated) | -10 | -1.0 | -3 | . | . | 0
Cc1cc(C)c(S(=O)(=O)NC(CC(=O)O)c2cccc([N+](=O)[O-])c2)c(C)c1 (configuration not stated) | 3 | 1.1 | 9 | 1 | -32 | -19
Cc1cc([N+](=O)[O-])nn1CC(=O)N/N=C/c1ccccc1Br | -9 | -0.7 | 2 | 6 | . | -10
NS(=O)(=O)c1ccc(CCNC(=O)C(=O)Nc2cc3c4c(c2)CC(=O)N4CCC3)cc1 | -28 | 0.2 | 26 | -3 | -6 | 0
COc1cc2c(cc1OC)CN(C(=O)Cc1ccccc1)CC2 | 1 | 1.4 | 7 | 15 | 2 | -1
COc1ccc(CNC(=O)CCS(=O)(=O)c2ccc3c(c2)CCN3C(C)=O)cc1 | -1 | -0.3 | -92* | 6 | 5 | 7
Cc1ccc(C(=O)NCc2ccco2)o1 | -5 | 0.7 | 7 | 7 | -3 | -4
Cc1oc(-c2ccccc2Cl)nc1Cn1cccc1C1=NC(c2ccccc2)CO1 (configuration not stated) | -13 | 1.1 | -15 | 6 | 14 | -9
Cc1ccc(C2=NN(C)c3nc4ccccc4n3C2)cc1 | -1 | 3.1 | 35 | 1 | 4 | 18
O=C(Cc1cc(=O)oc2cc(O)ccc12)N[C@@H](Cc1c[nH]c2ccccc12)C(=O)O | -4 | -0.4 | 6 | -2 | -1 | -8
COc1ccc2ccccc2c1CN(C)Cc1ccccc1 | -8 | -0.4 | 1 | 9 | -11 | .
Cc1nc(Oc2ccccc2)c2oc3ccccc3c2n1 | 5 | 2.6 | 12 | 31 | -11 | 13
CCCCOc1ccc(-c2nnc(-c3ccco3)o2)cc1 | -12 | -0.2 | -1 | -1 | -6 | 11
NC(Cc1ccc(Cl)cc1)c1csc(Nc2nccc(C(F)(F)F)n2)n1 (configuration not stated) | 0 | 0.1 | 1 | . | . | -3
N#C/C(=N\Nc1ccc(F)cc1)C(=N)N1CCCCCC1 | -20 | -0.2 | -9 | -3 | -11 | -12

The results go on:
SMILES | D2 potentiator | TRPML1 ag | Six1-Eya2 inh | TRPML1 blocker | TRPV1 potentiator | CtBP-E1A inh
O=S(=O)(Cc1cc(N2CCOCC2)nc(-c2ccccn2)n1)c1ccccc1 | -5 | -0.2 | -9 | -1 | -3 | -10
O=C(C1=COCCO1)N1CCN(S(=O)(=O)c2cccc(Cl)c2Cl)CC1 | -2 | 1.2 | 2 | 18 | -5 | -17
ClCCn1cnc2c(SCc3ccccc3)ncnc21 | -1 | -0.2 | 10 | -6 | . | 7
COCCCNC(=S)NNC(=S)Nc1ccccc1 | -3 | -0.4 | 5 | 31 | 4 | 3
CN(C)CCCOC(=O)c1cc2ccccc2o1 | -16 | -0.1 | 3 | 1 | 10 | 3

Compounds as they come. Share with any hit: about 0.95%.
